LANA-H2B inh: blocks KSHV LANA binding to histone H2A/H2B; Q9QR71; cell-free LANA-H2A/H2B peptide, fluorescence polarization; inhibition, % (no concentration beside the values); 0.6% of 320,000 active; in the data active means inhibition mostly above about 10%, no sharp cut-off; inactive means mostly below about 6.7%;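 further: stock transfer was 7.5 nL into about 10 µL; 0% = median of vehicle wells and 100% = median of positive control wells; one replicate is shown; the record names a cut of 25% in any replicate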
T cruzi repl: blocks replication of Trypanosoma cruzi; T. cruzi beta-gal in NIH3T3, luminescence, 90 h; inhibition, % (concentration not given with the values); 1.4% of 300,000 active;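 active means mean inhibition across valid replicates above about 55%, limit read from the data; inconclusive means mean below that limit but half or more replicates reach it; inactive means mean below it, under half of replicates reach it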;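 further: signal also drops with host cell toxicity which is not excluded here; 0% = plate median of DMSO wells and 100% = zero luminescence signal; higher percent means less beta-gal luminescence so fewer parasites; stock transfer was 50 nL into about 50 µL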
Ecoli rRNA inh: selective bacterial rRNA inhibition in E. coli | GFP signal change (wild-type ribosome), % (no concentration beside the values) | 1.6% of 350,000 active | E. coli WT GFP vs humanized-ribosome RFP mutants, fluorescence, 24 h; active compounds read low; DMSO median 0, no signal -100;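 active means significant combined selectivity score with lowered wild-type GFP, culture density cut under 30%, mutant RFP and density less affected; inactive means any of these conditions unmet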; further: one replicate is shown; some compounds called inactive have numbers as strong as hits
Calb FLC: C. albicans growth modulation with fluconazole; 0.57% of 300,000 active; C. albicans CaCi-2 (fluconazole-resistant clinical isolate) + fluconazole, Alamar Blue growth, 48 h; AID 1979; growth inhibition, % (test concentration not listed);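 active means most replicates above 75%; inconclusive means exactly half above 75%; inactive means most below 75%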;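 further: all wells also contain fluconazole at 8 µg/ml as a sub-toxic cotreatment; 0% = median of DMSO wells and 100% = median of geldanamycin control wells; wells of about 8 µL received 7.5 nL stock; the first replicate is given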
Beta cell apopt: blocks beta cell apoptosis | 0.8% of 300,000 active | INS-1E cytokine-induced death, ATP luminescence, 48 h; percent of positive-control rescue, neutral wells zero | protection from apoptosis, % (test concentration not listed);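 active means all replicates at 75% or more, or half of them and the mean; inconclusive means half reach 75% but not the mean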;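 further: 0% = cytokine-treated negative control wells and 100% = positive control rescue; higher means more ATP so stronger rescue from cytokine killing; wells of about 40 µL received 100 nL stock; the first replicate is given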
Bfl-1 A1 inh: inhibitors of the anti-apoptotic protein A1, read as caspase activation | MEF A1-2A-BIM cells, Caspase-Glo 3/7 luminescence, 3 h; percent of clofoctol response, vehicle zero | 0.066% of 330,000 active | AID 2462 | caspase activation, % (test concentration not listed);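 active means over half of replicate activation scores above 10%, or exactly half above 10 with the replicate mean above 10; inconclusive means replicate mean below 10 yet half the replicates above 10; inactive means over half of replicates below 10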;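 further: wells of about 30 µL received 50 nL stock; many hits fall short of the cut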
Beta2AR agonist: activates human beta-2 adrenergic receptor causing internalization; Am2.2-beta2AR cells, FAP receptor internalization, flow cytometry; reference of the scale not given here; response, % (test concentration not listed); P07550; 0.43% of 340,000 active;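 active means response above a set limit, near 3 SD of response in nonfluorescent compounds, cut at about 42% in these data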;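 further: stock transfer was 100 nL into about 11 µL; a reference agonist was the positive control; negative values mostly stem from fluorescent compounds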
Target sequence (P07550 whole entry, looked up): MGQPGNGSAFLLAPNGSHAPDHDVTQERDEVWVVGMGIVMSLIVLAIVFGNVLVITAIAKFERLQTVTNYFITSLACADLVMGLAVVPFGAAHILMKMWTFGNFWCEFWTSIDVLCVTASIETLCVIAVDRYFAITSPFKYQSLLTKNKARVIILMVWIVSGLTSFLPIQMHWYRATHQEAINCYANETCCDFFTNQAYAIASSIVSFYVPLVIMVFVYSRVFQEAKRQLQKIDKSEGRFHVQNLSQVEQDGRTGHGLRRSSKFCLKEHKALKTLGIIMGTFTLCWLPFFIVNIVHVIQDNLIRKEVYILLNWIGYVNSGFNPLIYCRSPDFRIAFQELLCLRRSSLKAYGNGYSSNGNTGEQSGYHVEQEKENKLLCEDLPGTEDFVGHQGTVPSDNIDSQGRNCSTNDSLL
ALR H2O2 inh: blocks human ALR sulfhydryl oxidase activity | AID 485317 | purified ALR, DTT oxidation, H2O2 HRP-luminol luminescence | inhibition, % (no concentration beside the values) | 3.8% of 290,000 active | P55789;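 active means mean and each replicate at 75% or more; inconclusive means only one of the two met; inactive means neither met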;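 further: stock transfer was 7.5 nL into about 7.5 µL; 0% = neutral wells and 100% = wells with inactivated enzyme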
Target sequence (P55789 whole entry, looked up): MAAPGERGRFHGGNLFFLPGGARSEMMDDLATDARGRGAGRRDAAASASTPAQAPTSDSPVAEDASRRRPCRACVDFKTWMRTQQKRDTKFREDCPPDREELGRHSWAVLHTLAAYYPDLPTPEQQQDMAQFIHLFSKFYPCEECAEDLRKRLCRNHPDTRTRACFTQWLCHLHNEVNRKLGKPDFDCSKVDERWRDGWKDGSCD
Ecoli rRNA inh OD600: second read-out of Ecoli rRNA inh, no call of its own (marks repeat the call); OD600 change, %; measured here: OD600 growth;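 optical density of the mix in the first replicate; 0 = DMSO median and -100 = no signal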
Ecoli rRNA inh RFP: second read-out of Ecoli rRNA inh, no call of its own (marks repeat the call); RFP signal change, %; measured here: RFP humanized mutant strains;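 first replicate; 0 = DMSO median and -100 = no signal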
The depositor's hits bear a star; ? = inconclusive; nt = not tested or not shown.

Molecule	LANA-H2B inh	T cruzi repl	Ecoli rRNA inh	Ecoli rRNA inh OD600	Ecoli rRNA inh RFP	Calb FLC	Beta cell apopt	Bfl-1 A1 inh	Beta2AR agonist	ALR H2O2 inh
COCCCNC(=O)Cc1c(C)c2cc3c(cc2oc1=O)OC(C)(C)CC3	-2.3	-7	0	1	-2.0	3	-9	-0.3	-14	-8
N#Cc1cc(-c2ccc(Cl)cc2)cnc1Sc1ccc(F)cc1	2.3	20	nt	nt	nt	13	0	0.2	1	-3
O=C(COC(=O)c1ccccc1O)Nc1cc([N+](=O)[O-])ccc1Cl	-3.0	3	20	14	-2.8	1	1	1.1	4	nt
COc1ccc(C(=O)N[C@H](C(=O)NCCCn2nc(C)cc2C)C(C)C)cc1	-5.9	nt	2	10	-0.3	nt	-4	1.5	2	-4
CS(=O)(=O)N(CC(=O)NC1CCCC1)c1cccc(F)c1	1.7	-3	nt	nt	nt	-5	-3	-0.6	8	-2
Cn1cnnc1SCc1ccc(C(=O)O)cc1	1.7	-6	nt	nt	nt	-9	4	-0.8	-1	-5
Cc1cc(S(=O)(=O)Nc2ccc(N(C)C)cc2)c(C)s1	1.2	1	nt	nt	nt	2	4	0.3	8	100*
CCN(CC(=O)NC)S(=O)(=O)c1ccc(C)cc1	2.2	-10	nt	nt	nt	5	-2	-0.8	-2	nt
Cc1cccc(NC(=O)CCC(=O)OCc2ccc(Br)cc2)c1	-2.8	-9	nt	nt	nt	4	-7	0.0	5	15
N#C/C(=C\c1cn(Cc2ccccc2C#N)c2ccccc12)C(=O)NCc1cccs1	3.7	-5	nt	nt	nt	-6	6	0.5	nt	-24
CC(=O)Nc1cccc(/C(C)=N/NC(=O)c2ccc(O)cc2)c1	-0.2	-12	17	12	1.4	-15	4	-0.1	4	-13
CC(C)c1nc2cc(C(=O)NC(c3cccnc3)C(F)(F)F)ccc2o1 (configuration not stated)	-1.3	2	-1	-15	-0.2	0	-5	-0.1	-11	-3
O=C(COc1ccc(Br)cc1)N(Cc1ccco1)C1CCS(=O)(=O)C1 (configuration not stated)	-1.7	-3	2	-1	-4.4	0	0	-0.3	-3	-26
O=C(C1CCCCC1)N1CCCn2c1nc1ccccc12	-3.4	17	nt	nt	nt	-17	-7	0.9	-16	-4
CCOC(=O)c1ccc(NC(=O)C2C3CCC(C3)C2C(=O)O)cc1 (configuration not stated)	-3.2	-4	nt	nt	nt	-2	0	0.0	13	-1

Continued, overlapping the part above by 2 compounds.
Molecule	LANA-H2B inh	T cruzi repl	Ecoli rRNA inh	Ecoli rRNA inh OD600	Ecoli rRNA inh RFP	Calb FLC	Beta cell apopt	Bfl-1 A1 inh	Beta2AR agonist	ALR H2O2 inh
O=C(C1CCCCC1)N1CCCn2c1nc1ccccc12	-3.4	17	nt	nt	nt	-17	-7	0.9	-16	-4
CCOC(=O)c1ccc(NC(=O)C2C3CCC(C3)C2C(=O)O)cc1 (configuration not stated)	-3.2	-4	nt	nt	nt	-2	0	0.0	13	-1
CCCCOc1ccc(C(=O)NCC(=O)NCC(c2ccc(OC)cc2)N2CCOCC2)cc1 (configuration not stated)	1.0	nt	nt	nt	nt	nt	4	-0.2	-1	-2
CC(=O)n1cc(N(C(=O)CCl)c2ccc([N+](=O)[O-])cc2)c2ccccc21	-6.7	11	-36*	-22*	-1.0*	57	0	-0.3	61*	40
COc1ccc(Cc2nnc(SCC(=O)Nc3ccccc3)[nH]c2=O)cc1	nt	0	-3	9	-3.7	3	-6	-0.1	6	nt
O=C(NCC1CCCO1)c1sc2cc(Cl)ccc2c1Cl (configuration not stated)	-1.1	10	nt	nt	nt	-4	3	-0.5	-7	1
Cc1ccc(C2=NOC(C)(c3nnc(-c4ccc(F)cc4)o3)C2)cc1 (configuration not stated)	-2.3	-13	-19	-27	0.8	9	-1	0.0	-3	-2
CC1Cc2ccccc2N1C(=O)CSc1nnnn1-c1ccc2c(c1)OCCO2 (configuration not stated)	-0.1	13	nt	nt	nt	-2	-3	0.7	-1	-18
CC1(C)CC(=O)C(CC(=O)NC2CCCc3ccccc32)C(=O)C1 (configuration not stated)	2.2	-5	3	-2	0.6	-6	-10	1.2	2	4
N#Cc1nc(Cc2ccccc2)oc1NCCCn1ccnc1	-1.2	-29	3	2	-1.0	-10	-6	1.2	-4	8
CCCCN(C(=O)CSc1nncn1-c1ccccc1)c1c(N)n(Cc2ccccc2)c(=O)[nH]c1=O	0.1	-2	-1	7	1.6	40	-9	0.0	-6	-1
N#Cc1ccc(/C=N/NC(=O)c2cccc(S(=O)(=O)N3CCOCC3)c2)cc1	-2.9	5	16	8	-1.0	4	nt	0.5	5	2
O=C(CSc1nnc(-c2ccc(S(=O)(=O)N3CCCC3)cc2)o1)NCc1ccco1	1.3	-7	nt	nt	nt	3	-6	-0.3	0	1
O=C1CCC([N+](=O)[O-])C(c2cccc(Cl)c2Cl)N1 (configuration not stated)	-0.2	-1	nt	nt	nt	?	-5	0.5	-8	-30
CCN1C(=O)C(CC(=O)Nc2ccccc2)S/C1=N\c1ccccn1 (configuration not stated)	3.3	-6	9	3	0.2	-14	-1	1.0	1	11
Cc1cc(NS(=O)(=O)c2ccc(NC(=O)c3ccco3)cc2)no1	-8.3	-7	nt	nt	nt	-2	-6	0.8	3	0
COc1cc(NC(=O)COC(=O)c2[nH]c(C)c(C(C)=O)c2C)cc(OC)c1	1.5	nt	6	32	3.0	nt	-21	?	2	-3

Molecule	LANA-H2B inh	T cruzi repl	Ecoli rRNA inh	Ecoli rRNA inh OD600	Ecoli rRNA inh RFP	Calb FLC	Beta cell apopt	Bfl-1 A1 inh	Beta2AR agonist	ALR H2O2 inh
NC(=O)N/N=C1\CCS(=O)(=O)c2ccc(F)cc21	-0.6	-12	12	6	0.2	-6	0	0.0	4	nt
CCOc1ccc(C(C)NC(=S)NC2CCCCC2)cc1 (configuration not stated)	3.7	14	-37	-70	1.1	-55	-1	0.7	3	nt
COc1ccc(OC(C)C(=O)N(C)Cc2nc(-c3ccc(C)cc3)no2)cc1 (configuration not stated)	-4.6	8	0	-12	-0.6	10	-15	0.4	0	nt
Cc1ccc(C)n1-c1sc2c(c1C(=O)O)CCCC2	-0.5	3	9	6	4.2	-5	-5	0.1	-3	96*
Cc1ccc(S(=O)(=O)N2[C@@H](c3cccc(Cl)c3)C(C(=O)O)=CC[C@H]2c2cccc(Cl)c2)cc1	0.8	nt	-39	-58	8.2	nt	1	0.7	16	28
Cc1ccc(/C=N/NC(=O)CNC(=O)c2ccc(S(=O)(=O)N3CCCC3)cc2)o1	-3.1	-30	13	15	-0.3	-4	-6	0.5	1	nt
COc1ccccc1NC(=O)N1CCC(C(=O)c2ccc(F)cc2)CC1	-1.1	nt	nt	nt	nt	-1	2	0.3	-1	3
O=[N+]([O-])c1ccc(Nc2ccc(F)cc2)cc1	2.0	-3	-7	-6	-0.9	-12	2	0.0	11	-8
COc1cccc(OC)c1C(=O)NN1CCCCC1	-7.5	5	18	16	-6.2	10	-3	0.0	-8	-8
CN1C(=O)OC(C)(C)C1=O	1.1	-20	nt	nt	nt	nt	2	0.8	-6	0
CNS(=O)(=O)c1ccc2nc(NC(=O)c3ccc(N4C(=O)CCC4=O)cc3)sc2c1	5.2	-4	8	9	7.1	7	4	-0.9	4	-31
COc1ccc(CN(C)C(=O)C23CC4CC(CC(C4)C2)C3)c(OC)c1	-3.3	3	-33	-66	11	-11	-3	0.0	10	nt
CN(C)c1cc(C(F)(F)F)nc(-c2ccccn2)n1	-0.1	-8	nt	nt	nt	4	-4	0.0	-21	-7
C[n+]1cccc(CNC(=O)/C=N/O)c1	-1.4	-7	nt	nt	nt	2	3	-0.4	7	-5
CCn1cc(C(=O)N2CCN(c3ccccc3OC)CC2)c2cc(OC)c(OC)cc2c1=O	nt	0	-2	1	-1.0	-13	nt	nt	11	nt

Molecule	LANA-H2B inh	T cruzi repl	Ecoli rRNA inh	Ecoli rRNA inh OD600	Ecoli rRNA inh RFP	Calb FLC	Beta cell apopt	Bfl-1 A1 inh	Beta2AR agonist	ALR H2O2 inh
Cc1ccc(/C=C/C(=O)NCCCN2CCN(CCCNC(=O)/C=C/c3ccc(C)cc3)CC2)cc1	2.0	-14	nt	nt	nt	0	3	2.3	4	25
COc1ccc(Nc2nc(N)nc(COc3ccc(OC)cc3)n2)cc1	14	2	nt	nt	nt	-8	-2	-0.9	3	0
O=C(c1ccc(F)cc1F)C1CCN(c2ccc([N+](=O)[O-])cn2)CC1	-1.4	7	-5	-5	32	-6	-13	-0.3	4	-1
CCCCOc1ccc(C2(C(=O)O)CCCC2)cc1	0.5	nt	nt	nt	nt	34	5	2.8	-3	-15
c1ccc(SCc2nc(-c3ccncc3)no2)cc1	-1.7	2	-5	-6	7.5	-3	-5	-1.7	6	-2
C/C(=N\O)C(C)(C)Nc1ccccc1F	1.0	-20	11	11	0.7	-2	-5	-0.1	1	-5
COc1ccc(CCn2nnnc2C(c2ccccc2)N2CCN(C)CC2)cc1OC (configuration not stated)	-0.1	32	nt	nt	nt	3	-9	-0.7	2	-10
Cc1cccc(C)c1NC(=O)CN(C)C(=O)CSC(=S)N1CCCC1	-1.4	0	4	10	-1.1	10	-4	-0.9	-4	-1
S=C(Nc1ccc2nc(-c3ccccn3)c(-c3ccccn3)nc2c1)N1CCOCC1	7.9	-4	1	2	-0.4	-14	-3	0.6	-2	-21
O=C(O)CCC(=O)N1CCc2cc(S(=O)(=O)N(CCc3ccccc3)Cc3ccccc3)ccc21	-3.6	18	nt	nt	nt	2	-2	0.3	6	26
O=C1CN(C(=O)c2cc([N+](=O)[O-])ccc2Cl)C(c2ccc(F)cc2)c2cc(F)ccc2N1 (configuration not stated)	-0.4	-5	nt	nt	nt	-3	nt	0.1	-1	-10
CCO[C@H]1OC(C(=O)NCc2ccccc2)=C[C@@H](c2cn(C(C)=O)c3ccccc23)[C@@H]1CCCO	-4.8	10	4	6	2.0	16	2	-0.1	-2	-2
CC(C)CCNC(=O)C1CCCN(S(=O)(=O)c2ccc(-n3cnnn3)cc2)C1 (configuration not stated)	-2.1	7	8	14	-1.8	1	-5	0.0	8	nt
Clc1ccc(OCc2nc(-c3ccccn3)n[nH]2)cc1	0.2	24	nt	nt	nt	15	11	0.0	-7	-3
COc1ccc(CCNC(=O)Cc2ccccc2)cc1OC	-0.1	22	14	6	0.6	-2	1	0.1	17	-14
CCc1nc(N2CCCCC2)c2oc3ccccc3c2n1	-2.0	15	nt	nt	nt	1	-2	0.4	-13	4
COCCOC(=O)c1[nH]c2c(c1C)C(=O)C(C(=O)OC)C(C)C2 (configuration not stated)	2.2	-10	1	5	1.5	-4	-3	-0.1	1	nt

Assay outcomes: PubChem BioAssay, several laboratories

Some of the compounds tested (hit frequency here may not be typical).
